# Sfp PPTase inh: inhibitors of Bacillus subtilis Sfp phosphopantetheinyl transferase; AID 1490; Q9F4F7; hit rate 3.5% among 310,000; Potency, µM, for the others: max response, negative = inhibition, most hits filed as inhibitors; Biochemical Sfp PPTase activity, qHTS; active = well fitted inhibition curve with a large enough effect; inconclusive = small, poorly fitted or top-dose-only effect, or another doubt; inactive = no such curve, though single readings can be large or run the other way;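 note: the enzyme is Sfp with the accession as filed and its product quenches rhodamine fluorescence; potency is the fitted concentration of half-maximal effect; 0% = enzyme reaction without inhibitor and -100% = no enzyme wells; top concentration of the series not given in the record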
#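 Compounds were incubated with enzyme (final 15 nM) for 15 min at room temperature before substrate addition started the reaction. Fluorescence at 525 nm excitation, 598 nm emission was recorded immediately and after 30 minutes.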
# TRPV1 PAM: potentiators of human vanilloid receptor 1 (TRPV1) | Q8NER1 | TRPV1-expressing cells, Fluo-8 calcium influx, capsaicin EC20 potentiation; host cell line not named in the record; control for the full effect not named in the record | potentiation, % at 8.33 µM | hit rate 0.02% among 320,000; active means potentiation above 80%; inconclusive means 30% to 80%; inactive means below 30%; note: 0% is about no effect
# Target sequence (Q8NER1 whole entry, looked up): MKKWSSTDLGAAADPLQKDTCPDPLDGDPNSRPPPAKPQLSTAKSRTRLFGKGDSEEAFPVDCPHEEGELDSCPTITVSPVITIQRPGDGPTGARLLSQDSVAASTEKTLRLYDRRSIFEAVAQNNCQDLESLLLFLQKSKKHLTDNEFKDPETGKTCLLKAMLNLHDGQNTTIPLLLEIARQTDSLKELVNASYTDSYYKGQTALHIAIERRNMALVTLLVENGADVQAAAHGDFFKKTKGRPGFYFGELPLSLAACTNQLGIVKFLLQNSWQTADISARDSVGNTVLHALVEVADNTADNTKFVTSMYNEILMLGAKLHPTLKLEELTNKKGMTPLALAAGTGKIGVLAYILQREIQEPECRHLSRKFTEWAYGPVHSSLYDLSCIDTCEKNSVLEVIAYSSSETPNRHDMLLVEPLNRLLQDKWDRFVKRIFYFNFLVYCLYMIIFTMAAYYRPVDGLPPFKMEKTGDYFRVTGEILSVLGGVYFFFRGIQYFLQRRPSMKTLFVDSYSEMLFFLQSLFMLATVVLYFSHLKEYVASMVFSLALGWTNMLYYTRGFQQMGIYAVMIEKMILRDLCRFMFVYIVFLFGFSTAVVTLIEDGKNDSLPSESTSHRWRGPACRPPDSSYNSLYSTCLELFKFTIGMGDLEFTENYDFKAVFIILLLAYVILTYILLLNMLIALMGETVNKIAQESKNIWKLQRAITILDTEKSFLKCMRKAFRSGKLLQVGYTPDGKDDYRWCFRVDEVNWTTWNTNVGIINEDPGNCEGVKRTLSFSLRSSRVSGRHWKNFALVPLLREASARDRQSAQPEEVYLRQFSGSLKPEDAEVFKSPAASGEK
#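 Cells expressing TRPV1 were dye-loaded with Fluo-8 and read kinetically: 10 s baseline, 3 min after compound (agonist portion), then 2 min after EC20 capsaicin (allosteric enhancer portion). Calcium-bound dye fluorescence at 480/520 nm.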
# D2 PAM: potentiates the human D2 dopamine receptor allosterically. DiscoveRx D2 beta-arrestin cells, luminescence, 90 min; 100% = 57 uM dopamine signal. potentiation, % (test concentration not listed). hit rate 0.23% among 360,000; active = potentiation of 50% or more; inconclusive = 30% to 50%; inactive = 30% or less;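 note: compound concentration not given in the record; tested on top of an EC20 dose of dopamine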
#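 PathHunter beta-arrestin assay in DiscoveRx D2 cells. Compounds were added with an EC20 of dopamine (50 nM final) for 90 min at 37 deg C. Luminescence was read 1 h after detection reagent, with 57 uM dopamine as the EC100 control.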
# PINK1 expr mod: PINK1 expression modulation | PINK1 immunofluorescence, high-content cytometry, 24 h | Potency, µM (doses to about 76.6 µM), without a hit: top-dose activation (PINK1 increase), usual class: activators | hit rate 0.2% among 410,000 | AID 624263; active = well fitted activation curve with a large enough effect; inconclusive = small, poorly fitted or top-dose-only effect; inactive = flat fitted curve, though single readings scatter; cell line not stated here;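 note: potency is the fitted concentration of half-maximal effect; % of control where 0% means no effect; nearly all actives have a fitted effect of over 65% in size; a mitochondrial uncoupler was the plate control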
#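 Stable cell line, 250 cells/well, 12 h attachment; compounds pinned at 5 concentrations, 24 h; CCCP control. Fixed with nuclear dye, primary antibodies 12 h at 10 degrees C, secondary plus cell stain; laser-scanning cytometer read.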
# D2 agonist: agonists of human D2 dopamine receptor (beta-arrestin) | DiscoveRx PathHunter D2 beta-arrestin, luminescence, 90 min; 100% = 57 uM dopamine signal | activation, % (test concentration not listed) | hit rate 0.084% among 360,000 | AID 624465; in the data active = activation above about 40%; inconclusive = about 15% to 40%; inactive = below about 15%; note: compound concentration not given in the record; the text of the record calls up to 30% inactive
#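 DiscoveRx PathHunter D2 beta-arrestin cells (2,100/well) attached overnight, then compound-stimulated 90 min at 37 C in HBSS/10 mM HEPES/0.1% Tween-20 buffer; beta-galactosidase complementation read by luminescence after 1 h at ambient temperature. Dopamine 57 uM final (EC100) as control.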
# Six1-Eya2 blk: inhibitors of human Six1/Eya2 interaction | Q15475+O00167 | AlphaScreen GST-Six1/His-Eya2 binding, biochemical; active compounds read low; control for the full effect not named in the record | activity change, % (no concentration beside the values) | hit rate 0.56% among 360,000 | AID 651725; in the data active = activity change below about -65%; inconclusive = about -30% to -65%; inactive = above about -30%; note: % is set by controls: 0 for no effect and ±100 for the full control effect
#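 AlphaScreen luminescence read after one hour at 37 °C in darkness. Pin-transferred compounds met GST-Six1 and His-Eya2 protein (5X stock 250 nM/500 nM) plus glutathione donor and Ni-chelate acceptor beads (5X, 50 ug/mL).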
# CtBP-E1A inh: CtBP/E1A binding inhibition | AlphaScreen GST-E1A/His-CtBP binding, 1536-well; active compounds read low; control for the full effect not named in the record | activity change, % (no concentration beside the values) | hit rate 0.49% among 340,000 | AID 651724; in the data active means activity change below about -65%; inconclusive means about -30% to -65%; inactive means above about -30%; note: % is set by controls: 0 for no effect and ±100 for the full control effect
#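 Steps: dispense buffer (Tris pH 8.0, NaCl 300 mM, TCEP 1 mM, BSA, Tween 20); add 5X protein mix (GST-E1A, His-CtBP, 125 nM each); pin 23 nL compound; 2 h at 37 °C, dark; add 5X beads (50 ug/mL); 1 h; read.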
# Active calls of the source: *; ? = inconclusive; · = not tested or not shown; [ ] = dose if it differs, or a comment. Hits appear at their usual frequency; overall some 3.7% were active at least once.
# Order of results: Sfp PPTase inh	TRPV1 PAM	D2 PAM	PINK1 expr mod	D2 agonist	Six1-Eya2 blk	CtBP-E1A inh
O=C(Nc1ccccc1N1CCN(c2ccccc2)CC1)c1ccccc1
→ 0%	24	5	8.2%	1.2	-20	-14
N#Cc1c(N)nc(SCC(=O)NCc2ccc3c(c2)OCO3)c(C#N)c1-c1cccs1
→ -3%	6	-5	11%	-4.1	-17	-8
CCN1CC(=O)Nc2cc(S(=O)(=O)N3CCOCC3)ccc21
→ 4%	1	0	-0.2%	-1.7	-5	-5
O=C(NC1CCCC1)c1ccc(Cl)c(S(=O)(=O)N2CCOCC2)c1
→ 11%	11	-9	2.9%	1.5	9	17
Cc1ccc(C)c(N2CCN(C(=O)c3cn(C)c4ccc(S(=O)(=O)N(C)C)cc4c3=O)CC2)c1
→ 15%	-8	-10	2.7%	-6.1	2	-8
Cc1cc(C)nc(/N=C2\NC(=O)CC(C(=O)O)N2c2ccc(C)c(C)c2)n1 (stereo not drawn)
→ 5%	5	0	0.0%	-0.4	2	0
O=C(CCN1Cc2ccccc2C1)c1ccc2c(c1)OCCO2
→ ?	-3	-10	·	0.2	-1	6
Nc1sc2c(c1C(=O)NCCc1ccccc1)CCC2
→ ?	-2	-4	1.1%	-4.1	-1	1
CC(NC(=O)Cc1ccc(F)cc1)c1ccccc1 (stereo not drawn)
→ 14%	-8	-8	0.3%	-1.5	9	3
CN1OC[C@@H]2CN(Cc3ccccc3)[C@H](c3cccc(Oc4ccccc4)c3)C[C@@H]21
→ ·	·	·	10.0%	-1.8	-13	-10
COc1ccc(CNc2nc3ccccc3n2C(C)C)cc1
→ -1%	12	-4	0.2%	-2.0	0	2
COc1ccc(-c2nnc(SCC(=O)NC3CCCc4ccccc43)n2N)cc1 (stereo not drawn)
→ 11%	4	-13	0.7%	0.5	1	0
Cn1cc(S(=O)(=O)NCC2CCCO2)c(=O)n(C)c1=O (stereo not drawn)
→ 1%	-9	5	0.7%	-2.4	9	5
COc1cccc(N(C(=O)c2ccn[nH]2)C2(C(=O)Nc3c(C)cccc3C)CCCCC2)c1
→ 10%	-1	-13	0.3%	-4.8	5	5
COc1ccc(CNC(=O)CCSCc2cccc(Cl)c2)cc1
→ -13%	-6	-19	0.5%	-0.4	-3	-4
O=C(NCc1nc2ccccc2[nH]1)c1ccc(S(=O)(=O)N2CCCC2)cc1
→ 15%	7	-7	-0.9%	0.3	-1	-20
CCC1CCCCN1C/C=C/c1ccccc1[N+](=O)[O-] (stereo not drawn)
→ -29%	-9	-21	2.2%[38.3 µM]	-3.6	0	1
Cc1cc(-c2ccc([N+](=O)[O-])cc2)cc(C)n1
→ ·	·	-1	1.0%	3.6	-11	-9
O=C(CNCc1ccncc1)Nc1cc(S(=O)(=O)N2CCCCC2)ccc1Cl
→ 45µM*	2	-3	1.9%	-3.9	-1	·
CCOC(=O)c1c(NC(C)=O)sc2c(OCC(O)CNC(C)(C)C)c(Br)ccc12 (stereo not drawn)
→ 5%	-15	-12	-1.8%	-9.1	-3	·

# Sfp PPTase inh, hit marks shown above
Molecule,Sfp PPTase inh,D2 PAM,PINK1 expr mod,D2 agonist,Six1-Eya2 blk,CtBP-E1A inh
O=C(CNCc1ccncc1)Nc1cc(S(=O)(=O)N2CCCCC2)ccc1Cl,45µM*,-3,1.9%,-3.9,-1,·

# New compounds follow:
# Order of results: Sfp PPTase inh	TRPV1 PAM	D2 PAM	PINK1 expr mod	D2 agonist	Six1-Eya2 blk	CtBP-E1A inh
O=C(Nc1ccc(Cc2ccncc2)cc1)c1ccc(Cl)c([N+](=O)[O-])c1
→ 12%	-6	-3	-1.1%	7.3	-5	-16
CCCCNc1nc(NC)nc(Cl)c1SC
→ 18%	4	-6	2.6%	-1.9	6	·
CCCCn1c(N)c(N(Cc2ccccc2OC)C(=O)COc2ccccc2OC)c(=O)[nH]c1=O
→ ·	2	16	3.2%	2.8	-1	10
CSCCC(NS(=O)(=O)c1ccc(C)cc1)C(=O)N1CC=C(c2ccccc2)CC1 (stereo not drawn)
→ ·	5	7	2.4%	-4.8	-8	7
COc1cccc(NC(=O)N(C)C[C@H]2Oc3cc(C#Cc4ccncc4)ccc3S(=O)(=O)N([C@H](C)CO)C[C@H]2C)c1
→ ·	·	2	3.4%	0.6	-16	-5
O=[N+]([O-])c1ccc(/C=C/c2ccc3ccccc3n2)cc1
→ -2%	1	8	1.2%	9.5	-9	-10
O=C(CCCN1C(=O)/C(=C/c2cccs2)SC1=S)Nc1cccc(O)c1
→ 11%	-13	-2	-2.9%	5.6	-18	-28
O=C(NCCc1ccccc1)C1CCC(Cn2c(=O)c3ccccc3n(Cc3cccc(F)c3)c2=O)CC1 (stereo not drawn)
→ -1%	-14	-22	11%	-0.1	8	-5
O=C(Nc1ccccc1)N1N=C(c2ccc(F)cc2)CC1c1ccc(F)cc1 (stereo not drawn)
→ -3%	-9	-9	9.8%	-5.2	-7	-2
COCCn1c(C)cc(C(=O)CSc2nnnn2C2CCCC2)c1C
→ ·	-21	-22	0.4%	3.4	-14	1
CCCn1c(SCC(=O)c2ccc3c(c2)NC(=O)CO3)nc2ccccc21
→ -23%	-9	-1	5.3%	-0.1	3	0
CS(=O)(=O)c1ccc(Cl)c(C(=O)NC2CCSc3ccccc32)c1 (stereo not drawn)
→ 11%	3	-5	-1.2%	-5.4	44	-2
Cc1ccc(NC(=O)c2cc(S(=O)(=O)N3CCOCC3)cs2)cc1
→ 15%	-9	-5	1.9%	-0.7	-5	-7
CC(=O)Nc1ccc(/C=C2/Sc3ccccc3C2=O)cc1
→ 3%	4	11	-1.8%	9.0	-4	6
COc1ccc(C2(O)CC3CCC(C2)N3c2nc(C)cc(C)c2C#N)cc1 (stereo not drawn)
→ 7%	17	-15	2.7%	-1.9	-1	-3
CCNS(=O)(=O)c1ccc(C)c(-n2cnnn2)c1C
→ 0%	-3	5	-1.9%	-0.8	3	-2
CC1=C(C(=O)N(C)C)C(c2cccs2)NC(=O)N1 (stereo not drawn)
→ 14%	4	-6	-0.5%	-2.4	7	-1
COc1cc2ccccc2cc1C(=O)Nc1ccccc1N1CCCC1
→ ·	-9	3	2.9%	-2.0	-18	-2
CCOc1ccc(CNS(=O)(=O)c2c(C)nc3scc(C)n3c2=O)cc1OC
→ 24%	15	-12	-1.3%	-5.1	0	2
CC(C)(C)NC(=O)c1cccnc1Sc1ccccc1
→ -1%	16	-32	-0.8%	3.2	-13	-8
Oc1c(Cl)cc(Cl)cc1C1=NNC(c2ccc(Cl)cc2)C1 (stereo not drawn)
→ 3%	9	-3	3.7%	-3.0	13	1
COc1ccc(-c2[nH]ncc2CN2CCN(Cc3cccs3)CC2)c(F)c1
→ 3%	-3	-19	3.0%	-1.0	-9	5
Cc1[nH]nc2c1C(C(C)C)C(C#N)=C(N)O2 (stereo not drawn)
→ 4%	-6	-22	-0.8%	-1.7	0	1
COc1ccc2c(C(=O)CCl)c[nH]c2c1
→ 7%	-8	-1	-0.8%	0.5	1	3
CCOC(=O)CC[C@H](NC(=O)Cn1cnc2c(SC)nc(N)nc21)C(=O)OCC
→ ·	·	-2	-0.1%	-1.2	6	3
CC(N=C1NC(C)(C)Cc2ccccc21)C(=O)O (stereo not drawn)
→ -2%	-1	-8	0.0%	1.0	4	10
COc1ccc(-c2cc(C(F)(F)F)nc(NCc3cccnc3)n2)cc1
→ -2%	13	-6	-0.6%[38.3 µM]	-2.9	-1	4
COc1ccccc1N1CCN(/N=C/C=C\c2ccccc2[N+](=O)[O-])CC1
→ -4%	19	-4	3.3%	1.7	?	·
COCCNC(=S)Nc1ccc2nc(N3CCCC3)cc(C)c2c1
→ -19%	1	-26	-0.9%	-1.5	-2	-4
CCOC(=O)CCCn1ncn2c(cc3occc32)c1=O
→ 12%	13	-6	1.2%	-3.7	2	3
Cc1ccc(S(=O)(=O)N(CC(=O)Nc2cccnc2)c2ccccc2C)cc1
→ 6%	-9	-16	3.3%	0.0	-13	-7
CCCCNCc1ccc(OCc2ccc(Cl)nc2)c(OC)c1
→ 13%	-10	-19	1.0%	0.6	7	3
Cc1ccc(-c2cc(C(F)(F)F)n3ncc(C(=O)N4CCN(C)CC4)c3n2)cc1
→ 1%	15	-11	0.0%	-4.2	-4	8
CCCCCCCCCC(=O)N1c2ccccc2NC(=O)C1CC(=O)Nc1ccc(C(=O)O)cc1 (stereo not drawn)
→ -4%	-5	-8	-0.6%	-4.5	-5	2
O=C1NC(c2ccco2)Nc2ccccc21 (stereo not drawn)
→ ?	-16	8	5.0%	1.1	6	8
OC(c1ccccc1)c1nc(-c2cccc(F)c2)cs1 (stereo not drawn)
→ ·	·	-8	7.7%	-3.1	24	32
COCCN(CC(=O)Nc1cccc(C)c1C)C(=O)Cn1cnc2ccccc2c1=O
→ ·	6	9	-1.3%	-1.9	1	-3
Cn1c(=O)c2cc(NC(=O)Nc3ccccc3)ccc2n1Cc1ccccc1
→ ·	·	8	2.7%	6.4	-12	-6
O=C(Nc1ccccc1C(=O)N1CCOCC1)c1ccc(Cl)cc1
→ 16%	-3	-4	0.9%	5.3	6	·
CCOC(=O)c1c(NC(=O)CSc2nc(C)cc(C)c2C#N)sc(C(C)=O)c1C
→ 7%	-4	1	5.8%	-0.9	-6	1
Cc1noc(NS(=O)(=O)c2ccc(N/C=C/C(=O)c3cccnc3)cc2)c1C
→ 8%	15	-6	·	1.9	-16	-9
COc1ccccc1-c1csc(NC(=O)c2ccc(N3C(=O)CCC3=O)cc2)n1
→ 2%	7	-11	13%	-3.9	0	·
CC1NC(=O)N(C)[C@@H]2NC(=O)N(C)C(c3ccc([N+](=O)[O-])cc3)[C@@H]12 (stereo partly drawn)
→ 6%	-1	-1	1.7%	-1.0	2	4
COc1ccc2oc(C(=O)OCC(=O)NCCc3ccc(S(N)(=O)=O)cc3)c(C)c2c1
→ ·	5	-30	3.5%	0.0	22	·
O=C(Cn1nnc(-c2ccc3c(c2)OCO3)n1)NCc1ccco1
→ -12%	-8	-5	0.0%	-3.6	-4	0
O=C(N/N=C/c1ccc(Cl)c([N+](=O)[O-])c1)c1cnccn1
→ -7%	7	3	1.1%	0.4	4	-4
C/C(CC(=O)Nc1ccc(F)cc1)=N\NC(=O)c1ccccn1
→ ?	-6	-7	0.7%	1.6	?	4
CC(C)CN(C(=O)COC(=O)c1ccc2c(c1)OCCO2)c1c(N)n(Cc2ccccc2)c(=O)[nH]c1=O
→ ·	11	-7	3.1%	-0.7	6	-2
